Screening results deposited in PubChem by ICCB-Longwood Screening Facility, Harvard Medical School.
GIV Gai3 FP – GIV-Galpha-i interaction inhibition; P08753; Galpha-i3/FITC-GIV peptide fluorescence polarization, 90 min; active compounds read low; scaled: aluminum fluoride 0%, vehicle 100%; percent of control (FP), % (test concentration not listed); 0.42% of 210,000 active; AID 1224905;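 active means replicate mean at 85% of control or lower, very high polarization wells dropped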;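 further: lower values mean more displacement of the GIV peptide from Galpha-i3; wells of about 15 µL received 100 nL stock; the first replicate is given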
Target sequence (P08753 whole entry, looked up): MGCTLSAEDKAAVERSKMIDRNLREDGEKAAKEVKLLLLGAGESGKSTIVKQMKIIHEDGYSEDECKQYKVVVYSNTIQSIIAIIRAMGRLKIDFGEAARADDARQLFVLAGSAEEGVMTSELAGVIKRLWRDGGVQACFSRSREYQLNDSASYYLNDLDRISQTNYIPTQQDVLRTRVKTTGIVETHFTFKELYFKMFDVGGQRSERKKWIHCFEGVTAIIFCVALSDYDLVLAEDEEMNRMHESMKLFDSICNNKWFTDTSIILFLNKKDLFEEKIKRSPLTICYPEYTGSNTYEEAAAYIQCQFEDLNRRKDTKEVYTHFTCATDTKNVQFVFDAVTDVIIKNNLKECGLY
HCMV UL50-53 inh – cytomegalovirus nuclear egress complex inhibition; 0.15% of 190,000 active; inhibition, % (test concentration not listed); AID 1918969; HTRF UL50-UL53 interaction, normalized percent inhibition;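 active means both replicates at 50% or more, plus weaker picks with an unusually low signal ratio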;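 further: stock transfer was 100 nL into about 20 µL; 0% = negative control wells and 100% = wells with untagged competitor protein; inactives centre near -12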
Sa growth inh – blocks Staphylococcus aureus growth; S. aureus RN4220 growth, OD600, 20 h, 42 °C; active compounds read low; relative growth, % (no concentration beside the values); 0.53% of 170,000 active; AID 720641;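 active means growth at 42 °C up to 50% and 20 or more points under that at 30 °C, or under 10% at both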;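 further: 300 nL library stock went into each well; scaled to the means of positive and negative controls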
Sa growth inh second temp – second read-out of Sa growth inh, no call of its own (marks repeat the call); relative growth, %; measured here: growth at 30 °C;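 optical density after 20 h as mean of two plates; 100% = untreated growth and lower means inhibition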
The depositor's hits bear a star; . = no result given; & = joins results of further samples.

molecule,GIV Gai3 FP,HCMV UL50-53 inh,Sa growth inh,Sa growth inh second temp
CCC(C)NC(=O)Cn1cnc2sc(C)c(S(=O)(=O)N3CCN(c4ccccc4OC)CC3)c2c1=O (configuration not stated),104.2,-23.8,111.0,87.0
CCOCCn1c(=NC(=O)C2CC2)sc2cc(S(C)(=O)=O)ccc21,98.2,-22.5,91.4,87.5
O=S(=O)(c1ccccc1)n1nc(-c2ccccc2)nc1NCc1ccc(Cl)cc1,100.9,-1.1,92.8,89.5
CC1(C)OC(=O)C(=CNNc2ccc(C(F)(F)F)cc2)C(=O)O1,118.3,-19.0,99.6,87.1
CC1CC(=O)N(CC(=O)N(C)C2CCCCC2)c2cc(S(=O)(=O)N3CCCCC3)ccc2S1 (configuration not stated),100.6,-26.7,.,.
CN1/C(=C\C(=O)c2nc(S(C)(=O)=O)ncc2Cl)C(C)(C)c2ccccc21,.,-19.0,95.6,85.0
Cc1cc(N2CCCC2)nc2ccc(NC(=S)NC3CCCC3)cc12,100.4,.,62.9,59.7
Cc1cc(NC(=O)c2ccco2)ccc1NC(=O)Cc1ccccc1,106.8,-11.1,103.3,92.7
Cc1ccc(N=C2C(=O)N(CN3CCCC(C)C3)c3ccccc32)cc1 (configuration not stated),100.4,-30.3,77.0,94.9
CCOc1cc2c(cc1OCC)C(C(=O)O)C(c1cc(Br)c(O)c(OC)c1)N(C)C2=O (configuration not stated),98.2,-20.0,.,.
COc1cc(C2Nc3ccccc3C(=O)N2c2cccc3ccccc23)cc(OC)c1OC (configuration not stated),100.9,-13.2,.,.
CCC(=O)Nc1nn2c(C)nnc2s1,99.4,.,90.8,76.5
COC(=O)Cn1cnc2c(cnn2-c2ccc(OC)cc2)c1=O,101.5,2.9,95.8,100.3
O=C(CN1C(=O)CCc2cc(S(=O)(=O)N3CCOCC3)ccc21)NCc1ccc(Cl)cc1,101.6,.,100.4,81.8
Cc1oc2ncn(CCC(=O)N3CCOCC3)c(=O)c2c1C,105.7,-1.7,.,.
CC(Cc1ccc(O)c(O)c1)(NN)C(=O)O (configuration not stated),.,-53.3&-42.9,87.8,79.5
CC(Cc1n[nH]c(=S)o1)c1ccccc1 (configuration not stated),.,-30.5,98.4,88.7
Cc1ccc(CN2CCCn3nc(C(=O)NCCN(C)C)cc3C2=O)cc1,97.4,.,97.1,88.0
Cc1ccc(NC(=O)c2sc3nc(-c4ccccc4)cn3c2C)cc1,97.6,-20.8,111.3,90.1
CCOC(=O)c1nn(-c2ccc(C)cc2)c(=O)cc1OCC(=O)NCc1ccco1,110.0,-29.8,104.3,99.4
CC1CN(C2CCN(C3CC4CCC3C4)CC2)CC(C)O1 (configuration not stated),102.6,-10.9,107.1,81.7
Cc1ccc(Cc2cnc(NC(=O)/C(C#N)=C\c3ccc(-c4ccc(C)cc4)o3)s2)cc1,106.1,-23.0,93.6,78.5
Cc1ccc(S(=O)(=O)N2CCN(C(=O)c3cc(-c4ccccc4)n[nH]3)CC2)cc1,95.5,-6.0,.,.
O=C(Cn1c(=O)n(-c2ccc(CC(=O)NC3CC3)cc2)c(=O)c2ccccc21)Nc1cccc(F)c1,101.5,12.7,.,.
Cn1ncc2c(NCc3ccccc3)nc(N3CCN(CCO)CC3)nc21,110.9,-6.2,99.7,84.5
CCOC(=O)c1nnn2c3ccccc3c(=O)n(C)c12,99.2,-35.5,85.6,81.9
COc1ccc(CCNC(=O)CCc2c(C)nc3cc(-c4cccc(F)c4)nn3c2C)cc1OC,102.4,23.5,97.7,98.8
CC(C)N(CC(N)=O)C(=O)c1ccc2c(c1)NC(=O)CS2,.,-31.3,89.8,89.7
CO/N=C/c1c(N(C(C)C)C(C)C)nc2ccc(C)cn2c1=O,103.3,-45.3,107.1,87.7
Cc1cc2ccc(C)c(C)c2nc1SCC#N,109.9,-23.0,110.8,95.0
CCOc1ccc(-n2c(SCc3ccccc3)nc3c([nH]c4ccccc43)c2=O)cc1,98.3,.,97.9,87.2
COc1ccc(C2CC(=O)N(c3ccc4c(c3)OCCO4)C(=O)C2)cc1,96.7,-16.3,.,.
Cc1ccc(S(=O)(=O)CCC(=O)Nc2ccc(Br)cc2C)cc1,104.6,.,78.7,94.4
CC(C)CNC(=O)COc1ccc(Cl)cc1Cl,107.5,-27.7,96.5,90.2
CCc1ccc2oc(-c3ccccc3)cc(=NCc3cccnc3)c2c1,101.7,.,96.4,43.7
Cc1cccc2c1NC(=O)C21OCCO1,108.1,-10.3,92.8,95.2
O=C(Cc1c(F)cccc1Cl)OCc1ncc(-c2ccccc2)o1,.,-4.4,115.0,99.1
OCC1CCCN(Cc2ccc(-c3ccccc3)cc2)C1 (configuration not stated),106.2,-1.9,108.7,101.1
CSc1nc(SCC(=O)c2ccc3c(c2)OCO3)nc(N)c1C#N,.,5.2,105.3,104.2
CCCCC(=O)N=c1sc2cc3c(cc2n1CCC)OCO3,102.8,-14.8,101.9,89.5
O=C(Oc1coc(CSc2ncccn2)cc1=O)c1ccccc1,101.7,-44.3,91.6,83.3
CCc1cc2c(CN(C)Cc3ccccc3F)cc(=O)oc2cc1O,.,-30.6,30.2,45.9
COc1cc(C2OC(=O)c3c2ccc(OC)c3OC)ccc1O (configuration not stated),.,-13.5,84.8,79.7
Cc1nn(C)c2c1c(C(F)(F)F)cc(=O)n2C(C)C(=O)NCc1ccccc1 (configuration not stated),104.2,.,109.4,92.4
Cc1ccc2nc(-c3ccncc3)c(Nc3ccccc3C)n2c1,101.1,-17.1,88.3,89.0
COCCn1c(=S)[nH]c2sc(C)c(C)c2c1=O,.,-2.2,33.6,14.0
CCC1=NN(C(=O)c2ccccc2F)C(O)(c2ccccc2)C1 (configuration not stated),.,-1.9,99.2,91.7
CCN(CC)C(=O)c1ccc2c(c1)N(Cc1ccccc1)C(=O)CS2=O (configuration not stated),95.1,6.3,113.2,89.5

Next part
Compound | GIV Gai3 FP | HCMV UL50-53 inh | Sa growth inh | Sa growth inh second temp
Cc1noc(C)c1C(=O)NCc1ccccc1F | 102.0 | 5.0 | 107.7 | 104.7
Cc1ccc(C)c(CN2C(=O)c3ccccc3S(=O)(=O)c3ccc(C(=O)N4CCN(Cc5ccccc5)CC4)cc32)c1 | 108.3 | -15.6 | 95.2 | 94.1
Cc1ccc(CN2C(=O)C3CCCCC3C2=O)cc1S(=O)(=O)Nc1ccc(Cl)cn1 (configuration not stated) | 105.2 | -11.0 | . | .
O=S(=O)(CC(O)Cn1ccc(C(F)(F)F)n1)c1ccc(Cl)cc1 (configuration not stated) | 97.2 | -8.9 | 96.0 | 85.3
COC(=O)/C=C\c1cn(-c2ccccc2)nc1-c1ccc(OC)cc1 | . | 1.3 | 72.8 | 92.4
NC(=O)C1CCN(C(=O)CC2(CC(=O)O)CCCC2)CC1 | . | -0.6 | 74.6 | 89.3
Cc1cccc2cc3c(nc12)N(C(=O)c1ccccc1Br)CC3 | 94.3 | -15.7 | . | .
CCN1C(=O)N/C(=C/c2cccn2-c2ccc(C(=O)O)cc2)C1=O | 96.4 | . | 116.1 | 78.8
COC(=O)C1=CN(C23CC4CC(CC(C4)C2)C3)C=C(C(=O)OC)C1c1ccc(F)cc1 | 99.1 | . | 86.3 | 79.8
Cc1sc2nc(CSc3nc4ccccc4n3CC(C)C)[nH]c(=O)c2c1C | . | -6.4 | 100.8 | 84.2
CCC(=O)Nc1cc2c(cc1SC(C)C)n(C)c(=O)n2C | 108.1 | -51.8 | . | .
CCN(C(C)=O)c1nc(-c2ccc(Br)cc2)cs1 | 100.9 | -15.4 | 110.1 | 93.2

An excerpt from the list above, as a working copy:
Compound | GIV Gai3 FP | HCMV UL50-53 inh | Sa growth inh | Sa growth inh second temp
CCN(CC)C(=O)c1ccc2c(c1)N(Cc1ccccc1)C(=O)CS2=O (configuration not stated) | 95.1 | 6.3 | 113.2 | 89.5
Cc1noc(C)c1C(=O)NCc1ccccc1F | 102.0 | 5.0 | 107.7 | 104.7
Cc1ccc(C)c(CN2C(=O)c3ccccc3S(=O)(=O)c3ccc(C(=O)N4CCN(Cc5ccccc5)CC4)cc32)c1 | 108.3 | -15.6 | 95.2 | 94.1
Cc1ccc(CN2C(=O)C3CCCCC3C2=O)cc1S(=O)(=O)Nc1ccc(Cl)cn1 (configuration not stated) | 105.2 | -11.0 | . | .
O=S(=O)(CC(O)Cn1ccc(C(F)(F)F)n1)c1ccc(Cl)cc1 (configuration not stated) | 97.2 | -8.9 | 96.0 | 85.3
COC(=O)/C=C\c1cn(-c2ccccc2)nc1-c1ccc(OC)cc1 | . | 1.3 | 72.8 | 92.4
NC(=O)C1CCN(C(=O)CC2(CC(=O)O)CCCC2)CC1 | . | -0.6 | 74.6 | 89.3
Cc1cccc2cc3c(nc12)N(C(=O)c1ccccc1Br)CC3 | 94.3 | -15.7 | . | .
CCN1C(=O)N/C(=C/c2cccn2-c2ccc(C(=O)O)cc2)C1=O | 96.4 | . | 116.1 | 78.8
COC(=O)C1=CN(C23CC4CC(CC(C4)C2)C3)C=C(C(=O)OC)C1c1ccc(F)cc1 | 99.1 | . | 86.3 | 79.8
Cc1sc2nc(CSc3nc4ccccc4n3CC(C)C)[nH]c(=O)c2c1C | . | -6.4 | 100.8 | 84.2
CCC(=O)Nc1cc2c(cc1SC(C)C)n(C)c(=O)n2C | 108.1 | -51.8 | . | .
CCN(C(C)=O)c1nc(-c2ccc(Br)cc2)cs1 | 100.9 | -15.4 | 110.1 | 93.2

Next entries:
Compound | GIV Gai3 FP | HCMV UL50-53 inh | Sa growth inh | Sa growth inh second temp
COc1ccc(-c2nnc(-c3c(C)noc3C)o2)cc1 | 110.2 | 4.3 | 103.8 | 83.1
COc1ccc(N(Cc2nc3nc(C)cc(=O)n3[nH]2)C(=O)C(C)C)cc1 | 99.2 | -20.2 | . | .
CN(c1ccc(Cl)cc1)S(=O)(=O)c1cccc(C(=O)Nc2ccccc2)c1 | . | -17.6 | 110.0 | 81.2
CSc1nc(-c2cccs2)cc(C(F)(F)F)c1C#N | 101.0 | -11.5 | 103.1 | 81.1
CN(C)/C=C1\S/C(=N\S(=O)(=O)c2cccs2)N(c2ccccc2)C1=O | . | -37.2 | 78.6 | 92.5
O=C(Cc1ccccc1)N1CCC(O)(c2cccnc2)CC1 | 94.0 | -4.7 | 86.9 | 93.9
C=C(C)c1cccc(C(C)(C)NC(=O)N2CCC(C(=O)OCC)CC2)c1 | 103.9 | -7.1 | 105.8 | 97.3
c1ccc2c(c1)ncn1nc(-c3cc(C4CC4)[nH]n3)nc21 | 99.5 | 12.5 | 106.5 | 89.1
Nc1ccccc1C(=O)Cc1ccccc1 | 96.8 | 11.1 | 83.4 | 101.2
Cn1nc(-c2ccc(S(=O)(=O)N3CCCN(C(=O)OC(C)(C)C)CC3)s2)cc1C(F)(F)F | 106.5 | -24.3 | 98.6 | 73.7
Cc1ccc(C(=O)C(C)OC(=O)C2CC(=O)N(C3CCCCC3)C2)cc1 (configuration not stated) | 103.8 | 3.8 | 109.0 | 73.2
COc1cc(OC)c(NC(=O)c2noc3c2CSc2ccccc2-3)cc1Cl | 98.7 | 0.2 | 74.2 | 92.2

An excerpt of these results, with two lines to a compound:
Fields – GIV Gai3 FP, HCMV UL50-53 inh, Sa growth inh, Sa growth inh second temp
CSc1nc(-c2cccs2)cc(C(F)(F)F)c1C#N
  101.0, -11.5, 103.1, 81.1
CN(C)/C=C1\S/C(=N\S(=O)(=O)c2cccs2)N(c2ccccc2)C1=O
  ., -37.2, 78.6, 92.5

The list continues.
Compound | GIV Gai3 FP | HCMV UL50-53 inh | Sa growth inh | Sa growth inh second temp
CC(C)C(=O)N1CCN(c2ccc(NC(=O)Cc3ccccc3)cc2Cl)CC1 | 103.2 | -13.1 | 92.6 | 56.3
CCOc1ccc(Nc2cc(N3CCCCC3)c3nonc3c2[N+](=O)[O-])cc1 | 105.0 | -2.2 | . | .
COc1cc(C2Nc3cc(C)ccc3NC3=C2C(=O)CC(c2ccccc2)C3)cc(OC)c1OC (configuration not stated) | 104.3 | -46.8 | . | .
O=C(Cc1csc(NC(=O)Nc2ccccc2)n1)Nc1ccc(Br)cc1 | 110.8 | -0.5 | . | .
CCn1nc(C)c2c1c(=O)n(CCc1ccccc1)c(=O)n2CC(=O)NC1CCCC1 | 98.0 | -2.0 | . | .
CC1(C)CC2(CCO1)NN=C(c1ccccc1)S2 (configuration not stated) | 104.9 | -16.2 | 97.6 | 78.7
O=c1cc2c3c(cc(O)cc3o1)OC2 | 101.0 | -61.1 | 92.3 | 81.3
CN1C(c2ccccc2)=Nc2cccc3cccc1c23 | 101.0 | . | 92.2 | 68.4
CCc1ccc(N2C(=O)/C(=C/c3ccc(OC(C)C(=O)O)cc3)C(=O)NC2=S)cc1 (configuration not stated) | 96.1 | -3.8 | . | .
CCC(C)Cn1c(COc2ccc(OC)cc2)nc2ccccc21 (configuration not stated) | 104.5&106.4 | -13.7&2.3 | 78.0 | 75.3
C=CCOC(=O)c1cn(CC)c2nc(C)ccc2c1=O | 104.5 | . | 101.0 | 86.5
O=C(CN1CCc2ccccc21)NC(=O)NCc1ccco1 | . | 14.4 | 88.8 | 90.1
CCOC(=O)N1CCN(c2cc(C(F)(F)F)nc3ccccc23)CC1 | 98.8 | -4.3 | 96.8 | 83.6
c1ccc(C2CNCCc3ccccc32)cc1 (configuration not stated) | 100.5 | -16.2 | 91.8 | 83.4
